miR-21 FLuc = qHTS Assay for Modulators of miRNAs and/orActivators of miR-21. Potency, µM (highest dose often 38.3 µM), for the others: at the highest dose reporter change, positive = more light. 340,000 tested, under 10 active. HeLa miR-21 FLuc reporter, luciferase, 48 h; active = well fitted rising curve with a large enough effect; inconclusive = small, poorly fitted or top-dose-only effect; inactive = no such curve, though single readings can be large or run the other way;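 also: % of control where 0% means no effect; miR-21 action dims this reporter so a rising signal means less miR-21 action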
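Luminescence from a firefly luciferase reporter carrying a miR-21 binding site downstream, stably expressed under a CMV promoter in HeLa cells that make miR-21 endogenously, reports miRNA modulation after 48 h compound exposure up to approximately 40uM final.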
GLA inh pH 4.5 = qHTS Assay for Inhibitors of Human alpha-Galactosidase at pH 4.5 | Alpha-galactosidase A (Homo sapiens), P06280 | purified enzyme, 4-MU-alpha-Gal fluorescence, pH 4.5 | activity change, negative = inhibition, % at 105 µM | 230,000 tested, under 10 active; inconclusive = small, poorly fitted or top-dose-only inhibition, or a rising curve; inactive = flat fitted curve, though single readings scatter; no compound was filed as active;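 also: 0% = full activity with enzyme and -100% = basal without enzyme; dose as in the result columns while the protocol names 77 µM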
Rango dissoc inh = qHTS Assay for Inhibitors of RanGTP induced Rango (Ran-regulated importin-beta cargo) - Importin beta complex dissociation | AID 540253, 2011 | Biochemical FRET Rango-importin beta, RanGTP-induced dissociation | Potency, µM (series often up to 46.1 µM), inactives show top-dose activity change, negative = inhibition | 340,000 compounds, 0.071% hits | Snurportin-1 (Homo sapiens) + GTP-binding nuclear protein Ran (Homo sapiens) + Importin …; active means falling FRET ratio curve, often poorly fitted, with flat reads before Ran was added; inconclusive means other falling curves, or compound fluorescence or quenching; inactive means flat or rising ratio curve;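 also: potency is read from the fitted curve at half-maximal effect; % of control where 0% means no effect; nearly all actives have a fitted effect of over 45% in size; -100% = wells without RanGTP and RCC1; the record marks most hits as doubtful in a second field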
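FRET read at 45 min, room temperature: inhibitors block the CFP/YFP signal rise when RanGTP (0.6 uM Ran, 2 mM GTP, 0.2 uM RCC1) frees Rango (0.1 uM) from importin beta (0.25 uM). Pre-read after 5 min compound exposure flags interference.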
Rango-impB inh = qHTS Assay for Inhibitors of Rango (Ran-regulated importin-beta cargo) - Importin beta complex formation | Importin subunit beta-1 (Homo sapiens), Q14974 | Rango CFP/YFP FRET sensor + importin beta, 45 min | Potency, µM (doses to about 92.2 µM), for the others: top-dose inhibition of complex formation | 340,000 compounds, 0.031% hits; active = rising FRET ratio curve, often small or poorly fitted; inconclusive = mostly compound fluorescence or quenching in the first reads; inactive = flat curves in all reads;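 also: potency is read from the fitted curve at half-maximal effect; 0% = DMSO wells and 100% = buffer wells lacking importin beta; nearly all actives have a fitted effect of over 15% in size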
Target sequence (Q14974 whole entry, looked up): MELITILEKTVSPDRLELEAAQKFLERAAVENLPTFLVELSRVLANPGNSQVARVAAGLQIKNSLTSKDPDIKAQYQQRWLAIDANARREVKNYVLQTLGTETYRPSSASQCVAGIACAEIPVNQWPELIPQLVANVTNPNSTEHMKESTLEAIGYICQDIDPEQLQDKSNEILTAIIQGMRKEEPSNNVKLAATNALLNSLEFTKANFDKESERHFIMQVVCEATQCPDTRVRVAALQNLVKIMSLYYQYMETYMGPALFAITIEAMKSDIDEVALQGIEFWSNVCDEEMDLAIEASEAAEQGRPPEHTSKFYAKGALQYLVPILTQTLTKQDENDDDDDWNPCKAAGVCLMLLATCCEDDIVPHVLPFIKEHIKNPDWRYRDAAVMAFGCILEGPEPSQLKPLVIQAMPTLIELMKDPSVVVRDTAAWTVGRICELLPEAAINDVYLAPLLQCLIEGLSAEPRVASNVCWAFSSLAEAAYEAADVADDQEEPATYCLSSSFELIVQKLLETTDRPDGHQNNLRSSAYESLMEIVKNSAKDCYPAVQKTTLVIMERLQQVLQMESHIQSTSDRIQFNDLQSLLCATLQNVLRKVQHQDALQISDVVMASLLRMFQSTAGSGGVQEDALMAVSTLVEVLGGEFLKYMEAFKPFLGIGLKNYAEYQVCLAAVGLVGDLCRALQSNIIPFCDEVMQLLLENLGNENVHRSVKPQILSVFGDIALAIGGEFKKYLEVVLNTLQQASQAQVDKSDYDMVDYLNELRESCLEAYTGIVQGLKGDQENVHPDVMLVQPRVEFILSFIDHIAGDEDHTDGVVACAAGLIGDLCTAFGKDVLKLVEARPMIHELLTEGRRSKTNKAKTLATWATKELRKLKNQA
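FRET biosensor Rango (snurportin 1 IBB between N-terminal EYFP and C-terminal Cerulean), 50 nM in PBS/1 mM DTT/0.02% Tween-20/0.1% BSA, preincubated 5 min RT with compound; 0.125 microM importin beta added, 45 min RT, CFP/YFP FRET ratio read.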
An asterisk follows results filed as active; ? = inconclusive; · = not tested or not shown; & = joins results of further samples. Some of the compounds tested; the hit share may differ from the screen's.

miR-21 FLuc	GLA inh pH 4.5	Rango dissoc inh	Rango-impB inh	SMILES
·	·	1%	-1.2%	Cc1ccc(S(=O)(=O)N(Cc2ccc(C(F)(F)F)cc2)C(=O)N2CCN(C)CC2)cc1
1%	·	3%	-0.1%	CCCNC(=O)N1CCC(c2nc3ccccc3s2)CC1
0%	·	28%	2.0%	Cc1ccsc1/C=N/NC(=O)C(O)c1ccccc1 (stereo not given)
-1%	·	0%	6.8%	Cc1ccc2c(CC(=O)NC3CCS(=O)(=O)C3)coc2c1C (stereo not given)
-8%	-3	3%	-1.7%	CCc1nc2c(C#N)c(-c3ccc(Cl)cc3)ccn2n1
1%	·	-5%	0.3%	Cc1nnc(NC(=O)CC(C)c2ccccc2)s1 (stereo not given)
-36%	5	-12%	2.2%	COc1cccc(C(=O)N2CCn3c2nc2ccccc23)c1
3%	5	-8%	5.9%	CCCS(=O)(=O)N1CCN(Cc2ccc3c(c2)c2ccccc2n3CC)CC1
3%	9&-3	4%	?	C=CCN1c2ccccc2[C@]23C[C@@H](C(=O)OC)N=C2NC(C(=O)OC)=C(C(=O)OC)[C@H]13
-11%	-10	-5%	0.7%	CC(C)OC(=O)c1cc(NC(=S)Nc2ccc([N+](=O)[O-])cc2)cc(C(=O)OC(C)C)c1
5%	7	-13%	1.9%	O=C(NC(=S)Nc1ccc(Cc2ccncc2)cc1)c1ccccc1
-1%	6	3%	-4.0%	CCCC(C)(C)NC(=O)CCCCC(=O)NC(C)(C)CCC
2%	-5	-7%	-0.1%	Cc1cccc(N(Cc2cc3ccccc3[nH]c2=O)C(=O)c2cccs2)c1
·	·	-16%	4.2%	Oc1c(Cl)cc(CN2CCOCC2)c2cccnc12
-6%	·	23%	0.1%	Cc1ccc(NC(=S)N2CCN(c3ccccc3F)CC2)c(C)c1
·	·	0%	0.1%	CCOc1nc(-c2ccccc2)ncc1Oc1ccccc1
-5%	2	22%	0.2%	COc1ccc(CCNC(=O)CSc2c[nH]c3ccccc23)cc1OC
21%	-7	7%	-0.7%	CCOc1ccc(NC(=O)CN(c2ccc([N+](=O)[O-])cc2)S(=O)(=O)c2ccccc2)cc1
-11%	5	21%	0.6%	O=C(NCc1cccs1)c1cnc2sccn2c1=O
-10%	1	?	?	CC(=O)c1c(C)[nH]c(C(=O)CSc2ncnc3sc(-c4ccccc4)cc23)c1C

Structures listed so far containing fluorine:
miR-21 FLuc	GLA inh pH 4.5	Rango dissoc inh	Rango-impB inh	SMILES
·	·	1%	-1.2%	Cc1ccc(S(=O)(=O)N(Cc2ccc(C(F)(F)F)cc2)C(=O)N2CCN(C)CC2)cc1
-6%	·	23%	0.1%	Cc1ccc(NC(=S)N2CCN(c3ccccc3F)CC2)c(C)c1

Additional results
miR-21 FLuc	GLA inh pH 4.5	Rango dissoc inh	Rango-impB inh	SMILES
·	·	-1%	-0.2%	CC(Oc1cccc(Br)c1)C(=O)NNC(=O)CCNC(=O)c1ccccc1Cl (stereo not given)
0%	0	5%	3.6%	Cc1cccc(NC(=O)CCN2CCN(C/C=C/c3ccccc3)CC2)c1
-2%	·	-6%	-0.1%	COc1ccc(NC(=O)c2ccco2)cc1S(=O)(=O)N1CCCCC1
-5%	-2	-14%	5.8%	CCOC(=O)CSc1nnc(-c2ccc(Cl)cc2Cl)o1
·	·	-10%	-0.3%	CCn1c(SCC(=O)Nc2sccc2C(N)=O)nnc1C1CC1
-8%	-4	-5%	3.0%	CC(C)C(c1nnnn1Cc1ccc(F)cc1)N1CCSCC1 (stereo not given)
3%	4	-2%	-2.8%	CCCN(CC1CC1)C(=S)NC(=O)c1ccc(S(=O)(=O)N2CCOCC2)cc1
3%	-9	-7%	2.1%	CCCSc1nc(-c2ccccc2)cc(C(F)(F)F)c1C#N
-3%	1	-16%	?	COc1ccc(NC(=O)CSc2nc(N)c(C#N)cc2C#N)cc1
-1%	-3	-3%	-1.2%	CCOP(=O)(OCC)C(NC(=O)Nc1ccccc1)c1ccccc1 (stereo not given)
-18%	-6	1%	?	CCNC(=S)/N=C(/Nc1ccccc1)Nc1nc(C)cc(C)n1
-3%	-22	1%	1.2%	O=C(c1sc2ccccc2c1Cl)N1CCN(c2ccc(F)cc2)CC1
-48%	·	-13%	-1.7%	COc1ccc(C(=O)Nc2ccc3ccccc3c2)c(OC)c1
-8%	-4	-11%	4.0%	CCOC(=O)CNC(=O)CSc1nnc(Cn2cnc3ccccc32)n1C
-40%	1	-8%	1.5%	CCCc1nc2oc3ccccc3c(=O)c2c(=O)n1-c1ccccc1
-1%	1	1%	-7.3%	COc1ccc(C(=O)NC(C)c2nnc(SCC(=O)Nc3nc4ccccc4s3)n2C)cc1 (stereo not given)
-32%	-6	-8%	-5.5%	Cc1ccc(-c2nnc(-c3ccncc3)n2-c2ccc(C)cc2)cc1
-4%	·	-2%	0.6%	CCC1CCCCN1CCN1C(=O)C2C(C(=O)Nc3ccc(OC)cc3)C3C=CC2(O3)C1C(=O)NC1CCCCC1 (stereo not given)
-12%	·	8%	-3.9%	O=C(O)CCC(=O)N1N=C(c2ccccc2)CC1c1ccc2c(c1)OCO2 (stereo not given)
-4%	·	-1%	-2.3%	COc1ccc(CNC(=O)c2c(O)c3cc(OC)c(OC)cc3[nH]c2=O)cc1OC

Next results:
miR-21 FLuc	GLA inh pH 4.5	Rango dissoc inh	Rango-impB inh	SMILES
-1%	8	12%	0.1%	O=C(c1ccc2c(=O)n(CC3CCCO3)c(=S)[nH]c2c1)N1CCN(c2ccccc2)CC1 (stereo not given)
-3%	3	-18%	-0.1%	CCN1CCCC(NC(=O)c2scc3c2CCCC3)C1 (stereo not given)
2%	4	-14%	-0.2%	Cc1sc(NC(=O)C2C3CCC(C3)C2C(=O)O)c(C(N)=O)c1-c1ccc(C(C)(C)C)cc1 (stereo not given)
-11%	0	11%	-1.5%	Cc1ccccc1C(=O)N/C(=C/c1ccc(-c2cccnc2Cl)o1)C(=O)NCCCN1CCN(C)CC1
-3%	4	12%	0.1%	C#CCNC(=O)C1=C[C@@H](C2CCCCC2)[C@H](CCCO)[C@@H](OCC)O1
0%	3	-13%	3.0%	CCC(=O)Nc1nc(C)nc(C)c1C(C)=O
2%	·	10%	0.4%	CC(=O)c1ccc(N2CCN(S(=O)(=O)c3ccc4c(c3)NC(=O)CO4)CC2)cc1
-4%	-3	0%	-2.9%	CC1(C)CC(=O)C(C2c3ccccc3Oc3ccccc32)C(=O)C1
1%	-6	-2%	-0.5%	COc1ccc(N2CC(C(=O)Nc3ccc(N4CCOCC4)cc3)CC2=O)cc1 (stereo not given)
-8%	1	26%	-0.7%	COc1cccc(-n2nnc3c(=O)n(CC(=O)N4CCCCC4)cnc32)c1
·	·	-16%	-0.7%	COc1cc(OC)c(C(=O)Nc2ncn[nH]2)cc1OC
-23%	·	-4%	-1.4%	Cc1c(C(=O)N2CCN(c3ccccn3)CC2)oc2c(F)cccc12
·	·	-1%	-1.8%	CCOc1ccc2oc(C(=O)N(C)CCc3ccc(OC)c(OC)c3)c(C)c2c1
0%	1	-4%	0.2%	c1cnc(N2CC[N+]3(CCCC3)CC2)nc1
-26%	-1	-6%	1.0%	COc1ccc(-c2nnc3ccc(SC(C(C)=O)C(C)=O)nn23)cc1OC
-12%	-2	8%	6.2%	CC(C)NC(=O)c1ccc(COCC(F)(F)C(F)F)cc1
-4%	1	-6%	-9.1%	CCN(CC)CCNC(=O)C1CCCCN1S(=O)(=O)c1cccc([N+](=O)[O-])c1 (stereo not given)
-56%	-1	-8%	-0.4%	C/C(=N\NC(=O)c1ccc([N+](=O)[O-])c(C)c1)c1ccccc1Cl
·	·	1%	-1.0%	COC(=O)[C@@]1(C)[C@H]2C(=O)N(C)C(=O)[C@H]2[C@H]2CN=C(SC)N21
-4%	-4	9%	-1.1%	CN(C)/C=N/S(=O)(=O)c1ccc(Cl)c(Cl)c1

Shown as tab-separated lines: entries from further up.
compound	miR-21 FLuc	GLA inh pH 4.5	Rango dissoc inh	Rango-impB inh
CC1(C)CC(=O)C(C2c3ccccc3Oc3ccccc32)C(=O)C1	-4%	-3	0%	-2.9%
COc1ccc(N2CC(C(=O)Nc3ccc(N4CCOCC4)cc3)CC2=O)cc1 (stereo not given)	1%	-6	-2%	-0.5%
COc1cccc(-n2nnc3c(=O)n(CC(=O)N4CCCCC4)cnc32)c1	-8%	1	26%	-0.7%
COc1cc(OC)c(C(=O)Nc2ncn[nH]2)cc1OC	·	·	-16%	-0.7%
Cc1c(C(=O)N2CCN(c3ccccn3)CC2)oc2c(F)cccc12	-23%	·	-4%	-1.4%
CCOc1ccc2oc(C(=O)N(C)CCc3ccc(OC)c(OC)c3)c(C)c2c1	·	·	-1%	-1.8%
c1cnc(N2CC[N+]3(CCCC3)CC2)nc1	0%	1	-4%	0.2%

(cont.)
miR-21 FLuc	GLA inh pH 4.5	Rango dissoc inh	Rango-impB inh	SMILES
-6%	-19	-1%&-2%	3.9%&3.8%	N#Cc1ccc(N=c2ssnc2Cl)cc1
0%	3	-2%	-1.4%	O=C(O)c1ccc(S(=O)(=O)NC2CCCc3ccccc32)cc1 (stereo not given)
0%	·	4%	4.8%	Cc1ccc(C(=O)O)cc1NCc1ccncc1
4%	·	2%	0.5%	COc1ccccc1CNC(=O)Cn1nnnc1CN(C)C(C)C
0%	1	10%	0.0%	O=C(Nc1ncccn1)c1ccc([N+](=O)[O-])cc1
6%	·	-11%	-6.0%	COc1ccccc1/C=C/CN1CCC(Oc2cc(C(=O)NC3CC3)ccc2OC)CC1
0%	-13	0%	?	COC(=O)Cc1c(C)c2ccc(OCc3nn[nH]n3)c(C)c2oc1=O
-14%	7	15%	0.2%	CCNC(=S)Nc1ccc(NC(=O)c2ccccc2O)cc1
·	·	-5%	-2.0%	CC(CNC(=O)CN(C)CC(=O)Nc1ccccc1Br)c1ccccc1 (stereo not given)
-15%	-4	-14%	-1.9%	O=C(NCCOc1ccccc1Cl)c1ncn[nH]1
-29%	-1	21%	-0.5%	COc1ccc(NC(=O)CCOc2ccccc2)c(OC)c1
-2%	-17	-17%	0.1%	FC(F)(F)c1cc(-c2ccccc2)nc(N2CCOCC2)n1
-5%	·	5%	2.8%	Cc1cccc2c1NC(=O)C2=Nc1ccc(Cl)cc1
-43%	-2	16%	5.1%	CCc1ccc(-c2cc(C(=O)NN3CCN(C)CC3)c3ccccc3n2)cc1
-2%	8	-15%	8.7%	O=C(NCc1n[nH]c(=S)n1-c1ccc(Br)cc1)c1ccc(S(=O)(=O)N2CCOCC2)cc1
-2%	-3	0%	-0.2%	CCc1ccc(S(=O)(=O)c2nnn3c2nc(NCCNC(C)=O)c2ccccc23)cc1
·	·	0%	0.4%	Cc1ccc(OCCCC(=O)NNC(=O)c2ccccn2)cc1
·	·	21%	0.0%	CC(C)N1CCN(S(=O)(=O)c2ccccc2)c2ccccc21
-7%	-3	-8%	-2.6%	CCn1c(C)c(C(C)=O)c(NCc2ccccc2)nc1=S
-20%	-7	29%	4.3%	COC(=O)Nc1cc([N+](=O)[O-])ccc1OC

Next entries.
miR-21 FLuc	GLA inh pH 4.5	Rango dissoc inh	Rango-impB inh	SMILES
-2%	4	-5%	1.8%	COc1ccc(CCN(Cc2cc3cc(C)c(C)cc3nc2Cl)C(=O)C2CC2)cc1
3%	4	-1%	-1.3%	CCOC(=O)NC(Nc1cc(C)on1)(C(F)(F)F)C(F)(F)F
·	·	13%	0.6%	CCc1ccc2c(COC(=O)C3CSC4(C)CCC(=O)N34)cc(=O)oc2c1 (stereo not given)
4%	·	7%	0.2%	O=C(NCCOc1ccc(F)cc1)C1CCC(=O)N(CCc2ccccn2)C1 (stereo not given)
-9%	·	11%	5.5%	O=C(CSc1ncn[nH]1)N/N=C/c1ccc(Br)cc1

Screens as filed in PubChem.
